S aureus helic – blocks Staphylococcus aureus DNA helicase; inhibition, %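 (tested at about 80 µM)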; 120,000 compounds, 0.05% hits; purified S. aureus helicase, fluorescence unwinding assay; about half of the hits fall short of the stated cut;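 active = both duplicates at 50% or more, or one of them with a favoured structure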;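 also: 0% = mean of negative control wells and 100% = mean of positive control wells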
MgrA DNA FP – alters Staphylococcus aureus MgrA binding to DNA | fluorescence polarization | 84,000 compounds, 0.13% hits | AID 602314 | inhibition, %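 (about 10 µg/mL by stock and volumes)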;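 active = above 50% in either of two replicates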;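 also: 0% = protein plus DNA without compound and 100% = DNA alone without protein; higher means less MgrA bound to DNA so lower polarization; one replicate is shown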
Starred values were filed as active, the others as inactive; nt = not tested or not shown; & = joins results of further samples.

S aureus helic,MgrA DNA FP,structure
17.0,nt,COc1ccc(C2CCCCCN2C(=O)Cn2ncc(=O)c3ccccc32)cc1 (configuration not stated)
-12.0,nt,CCc1nnc(NC(=O)Cc2ccsc2)s1
nt,-3.4,Cc1nn(-c2ccccc2)nc1C(=O)Nc1nnc(C(F)(F)F)s1
2.0,2.5,CC(C)c1ccc(-n2cccc2)cc1
nt,-11.8,COc1cc(CC/C(C)=N\O)ccc1OCc1ccc(Cl)cc1Cl
5.0,1.6,O=C1CC(Nc2c[nH]c(=O)[nH]c2=O)C(=O)N1c1ccc(Br)cc1 (configuration not stated)
nt,-0.6,C/C(=N\OC(=O)c1cccs1)c1cc(C(C)(C)C)cc2c1CCC2(C)C
8.0,nt,COc1ccc(OC)c(NC(=O)CSc2nc3ccccc3nc2N2CCCC2)c1
2.0,-5.5,O=C(O)CCc1ccc2c(c1)OCCO2
7.0,1.6,COC(=O)CSc1sc(=S)sc1SCC[n+]1ccccc1
-23.0,4.5,O=C(CC1(O)C(=O)N(Cc2cccc(F)c2)c2ccccc21)c1ccco1 (configuration not stated)
-16.0,nt,COc1ccc(NC(C)=O)cc1C#N
-15.0,nt,O=C(COC(=O)Cn1cnc2ccccc2c1=O)NC12CC3CC(CC(C3)C1)C2
nt,1.4,O=C(CCc1nc(-c2ccc(Cl)cc2)no1)NNS(=O)(=O)c1ccc(Cl)cc1
-5.0,0.5,O=C(c1ccc2c(c1)N(Cc1ccccc1)C(=O)c1ccccc1S2)N1CCCC1
9.0,nt,COCC(C)n1c(C)cc(C(=O)COC(=O)/C(=C/c2cccs2)c2cccs2)c1C (configuration not stated)
-10.0,nt,Cc1ccc(S(=O)(=O)Nc2ccccc2C(=O)Nc2nccs2)cc1
nt,-2.5,COc1cccc(CC(=O)NC2CCN(c3nccc(C(F)(F)F)n3)CC2)c1
-25.0,nt,CCOC(=O)Cn1c(=N)n(Cc2ccccc2F)c2ccccc21
-28.0,nt,CCOc1ccc(-c2nc3ccc(C)cc3[nH]2)cc1
-1.0,nt,c1ccc(-c2cc(N3CCOCC3)n3cnnc3n2)cc1
-22.0,nt,COC(=O)c1cc(Br)ccc1NC(=O)c1cc2ccccc2oc1=O
-5.0,nt,COc1cc2ccccc2cc1C(=O)NCC(F)(F)F
nt,-1.6,COc1ccc(-c2cc(C(F)(F)F)n3nc(C(=O)N4CCCC4)c(Cl)c3n2)cc1OC
10.0,-0.2,COc1ccc(C(=O)Nc2ccc3nc(N4CCN(c5ncccn5)CC4)cc(C)c3c2)c(OC)c1

In a second layout: four of the compounds above.
mol,S aureus helic,MgrA DNA FP
COc1cccc(CC(=O)NC2CCN(c3nccc(C(F)(F)F)n3)CC2)c1,nt,-2.5
CCOC(=O)Cn1c(=N)n(Cc2ccccc2F)c2ccccc21,-25.0,nt
CCOc1ccc(-c2nc3ccc(C)cc3[nH]2)cc1,-28.0,nt
c1ccc(-c2cc(N3CCOCC3)n3cnnc3n2)cc1,-1.0,nt

Next entries follow.
S aureus helic,MgrA DNA FP,structure
-1.0,nt,Brc1csc(CNCCc2ccco2)c1
3.0,-2.1,CCn1c(=N)n(CC(=O)c2ccc(Br)cc2)c2ccccc21
23.0,3.5,CC1=[N+]([O-])C(C)(C)C(c2ccc(Cl)cc2)=[N+]1[O-]
3.0,nt,CCOC(=CNc1ccc2nsnc2c1)OCC
nt,-0.4,CCOC(=O)Cc1csc(-c2ncc(C(F)(F)F)cc2OCC)n1
4.0,-0.1,CCOc1ccc(C(=O)OC(C)CN2CCCCC2)cc1 (configuration not stated)
nt,-0.6,CCOC(=O)/C(C#N)=C1\SC=C(c2ccccc2)N1c1c(C)cccc1C
-4.0,nt,CNC(=O)CC(=O)Nc1ccc(C(=O)O)cc1
17.0,-1.7,Fc1c(F)c(C(F)(F)F)c(F)c(F)c1Sc1nc2ccccc2o1
18.0,-3.1,N=c1n(CCN2CCCCC2)c2ccccc2n1CC(=O)c1ccc(Br)s1
9.0,-0.1,CCOC(=O)c1csc(NC(=O)c2ccc(S(=O)(=O)N(CC)CC)cc2)n1
7.0,nt,CC1Cc2ccccc2N1C(=O)COC(=O)c1ccc(-n2cnnn2)cc1 (configuration not stated)
13.0,0.1,O=C(CSCc1cnn(-c2ccccc2)c1-n1cccc1)N1CCN(c2ccc(F)cc2)CC1
-7.0,nt,COc1cccc(C2=NOC(C(=O)NC3CCCC3)C2)c1 (configuration not stated)
3.0,-0.8,O=C(CCc1ccccc1)Nc1cccc(NC(=O)CCc2ccccc2)n1
-13.0,nt,Cc1ccc(C)c(C(C)NC(=O)Cc2c(C)noc2C)c1 (configuration not stated)
-15.0,nt,O=C(NCCSc1c[nH]c2ccccc12)c1c(F)cccc1F
12.0,4.5,Cn1nc(C(=O)N2CCN(c3cccc(C(F)(F)F)c3)CC2)c2c1-c1ccccc1OC2
nt,-1.9,CC(=Nc1cc(C)[nH]n1)C1CCOC1=O (configuration not stated)
10.0,nt,CN(C)Cc1c(O)ccc2c(=O)c(-c3ccc(Cl)cc3)coc12
-2.0,1.6,COc1ccccc1NC(=O)C(C#N)Cc1cc2cc(C)cc(C)c2[nH]c1=O (configuration not stated)
-2.0,nt,O=c1oc2cc(S(=O)(=O)N3CCCC3)ccc2c2ccc(S(=O)(=O)N3CCCC3)cc12
2.0,nt,COc1ccc(C2=NN(C(=O)COC(=O)c3ccc4c(c3)C(=O)N(CCC(C)C)C4=O)C(c3ccco3)C2)cc1 (configuration not stated)
7.0,nt,COC(=O)CCc1c(C)nn(-c2ccccc2)c1C
-8.0,nt,COC(=O)c1ccccc1S(=O)(=O)N1CCN(c2ncccn2)CC1
11.0,4.0,c1cc2c3c(cccc3c1)NC1(CCCCC1)N2
-1.0,0.6,Cc1cc(NC(=O)/C=C/c2cccs2)n(-c2ccccc2C(F)(F)F)n1
11.0,0.1,CCOC(=O)C1CCCN(C(=O)C2CCCCC2)C1 (configuration not stated)
9.0,-1.0,CCn1c(NC(=S)Nc2ccccc2)nc2ccccc21
-3.0,nt,CCn1c(CN(C)c2ccccc2)nc2cc(S(=O)(=O)N(C)C)ccc21
-1.0,nt,C/C(=N\OCC(=O)Nc1ccc2c(c1)OCCO2)c1cc2ccccc2o1
-4.0,nt,COc1ccc(NC(=O)COc2ncnc3sccc23)cc1
nt,2.0,Cc1ccc(S(=O)(=O)Nc2ccc3ncccc3c2)cc1
-21.0,1.9,N#Cc1c(/N=C/c2ccc(F)c(F)c2)sc2c1CCC2
2.0,1.6,O=[n+]1cc(-c2ccc(F)cc2)n([O-])c2c1CCC2
-14.0,nt,Cc1cc(-n2sc3ccccc3c2=O)c2ccccc2n1
18.0,0.2,Cc1cc(Cl)c(C(=O)NC(C)C2CC2)cc1Cl (configuration not stated)
8.0,0.7,Clc1cccc(-n2cc(-c3ccccc3)c3c(NCC4CCCO4)ncnc32)c1 (configuration not stated)
-8.0,nt,O=c1oc2ccccc2cc1-c1nc(C2CC2)cs1
12.0,-0.6,COc1cccc(CN(Cc2ccco2)C(c2nnnn2Cc2ccc(F)cc2)C(C)C)c1 (configuration not stated)
15.0,nt,N#Cc1ccc(COC(=O)CC2CCS(=O)(=O)C2)cc1 (configuration not stated)
-6.0,nt,CN=C1CC(C)(C)CC(=O)/C1=C(\O)CCC(=O)NC
9.0,nt,Cc1cc(N)nc(=S)[nH]1
-32.0,nt,COc1ccccc1NC(=O)Cc1noc(COC(=O)c2cccc(S(=O)(=O)N3CCc4ccccc43)c2)n1
-19.0,nt,CCNc1ncnc2onc(C)c12
22.0,nt,Cc1nn(-c2ccccc2)c(C)c1CN(C)C(=O)c1cc(C2CC2)nn1-c1ccccc1
nt,-4.0,O=C(Nc1ccc(Cl)cc1OC(F)(F)F)c1cccs1
-6.0,nt,COC(CN(C)C(=O)C1CCCN(S(=O)(=O)c2ccc3c(c2)oc(=O)n3C)C1)OC (configuration not stated)
-7.0,21.1,COC(=O)/C(C#N)=C/c1ccc(-c2ccccc2)o1
nt,1.6,Fc1ccc(-c2csnn2)cc1

Continuation:
S aureus helic,MgrA DNA FP,structure
1.0,0.7,CC(=O)N1N=C(c2ccc3ccccc3c2)OC12CCCC2
-32.0,nt,COc1ccccc1N1CCN(C(=O)c2cc3ccc4cccnc4c3[nH]2)CC1
8.0,nt,O=C(CCCn1c(=O)c2sccc2n(Cc2ccccc2)c1=O)NCc1ccccc1
19.0,nt,O=C(CNc1ncnc2ccccc12)NCCO
-20.0,nt,CC1(C)Cn2c(nc(=O)c3c2NC(=O)C3(O)C(F)(F)F)S1 (configuration not stated)
-2.0,nt,CC12C(=O)N(c3ccc(C(=O)O)cc3)C(=O)C1C1C=CC2C1 (configuration not stated)
11.0,0.4,COc1cccc(C(=O)Nc2c3c(nc4ccccc24)CCCC3)c1
10.0,-2.2,Cc1nn2c(c1-c1ccccc1)NC(C(F)(F)F)(C(F)(F)F)NC2=O
11.0,nt,c1ccc2c(c1)CCNC2CNCc1ccc2c(c1)OCO2 (configuration not stated)
14.0,nt,Cc1ccc(-c2nnc(NC(=O)C3CC3)s2)cc1
11.0,34.7,O=C1C=C2N(c3ccccc3)CCOC2(O)c2ccccc21 (configuration not stated)
1.0,nt,CCc1cc2c(SCC(=O)C(C#N)=C3N(C)c4ccccc4N3C)ncnc2s1
10.0,nt,CCC1COC(c2cccn2Cc2ccccc2)=N1 (configuration not stated)
nt,2.3,C=C1SC(Nc2cc(Cl)cc(Cl)c2)=NC1(CC)CC
19.0,nt,CC(C)n1c(=O)c2oc3ccccc3c2n(CC(=O)NCc2ccccc2)c1=O
12.0,-2.4,CCOC(=O)C1=C(C)N(CCO)C(=O)NC1c1ccc(O)cc1 (configuration not stated)
9.0,nt,CCOc1ccccc1C(=O)OCC(=O)NC1CC1
-3.0,1.6,Cc1ccc(-c2nnn(CC(=O)NC(C)C)n2)cc1
5.0,-8.0,CCOC(=O)c1cc(-c2ccc(F)cc2)n(CC(=O)N(C)Cc2ccccc2)c1C
5.0,nt,C=CCn1c(=NC(=O)CCCC)sc2cccc(OC)c21
-12.0,nt,COc1cccc(CC2(O)C(=O)Nc3ccccc32)c1 (configuration not stated)
-3.0,nt,CCCCNC(=O)CN1C(=O)c2ccccc2S1(=O)=O
12.0,nt,N#Cc1ccc(-c2ccc(O)cc2)cc1
13.0,2.2,O=C1CCS(=O)(=O)c2ccccc2N1Cc1ccccc1
9.0,4.2,C=CCN=Cc1c(O)[nH]c2ccccc12
nt,-0.7,CSc1n[nH]c(-c2cc(C(C)(C)C)oc2C)c1C#N
-1.0,1.8,O=S(=O)(c1ccc(NC(=S)NC2CCCCC2)cc1)N1CCOCC1
-7.0,nt,Cc1ccc(OCc2nc(SCC(=O)N3CCc4ccccc43)n[nH]2)cc1
-3.0,nt,COc1ccc(CCN2C(=O)CC(Nc3cc(C(=O)O)ccc3C)C2=O)cc1 (configuration not stated)
8.0,-2.0,O=S(=O)(Cc1ccccc1)N1CCN(Cc2ccco2)CC1
nt,-5.0,CSc1nc(-c2cccnc2)nc(N)c1C#N
14.0,-0.2,Clc1ccc2nc(-c3cccnc3)c(Nc3ccccc3)n2c1
13.0,nt,c1ccc(COc2ccc(Oc3cnccn3)cc2)cc1
-19.0,-3.1,COC(=O)c1ccc(NN)cc1
-8.0,nt,COc1ccc(-n2c(C)cc(CNS(=O)(=O)c3ccccc3)c2C)cc1
nt,-1.9,Fc1cccc(-c2csc(-c3ccc(-c4csnn4)cc3)n2)c1
-13.0,nt,COc1ccc(NC(=O)CN(C)C(C)C(=O)Nc2ccc(NC(C)=O)cc2)cc1 (configuration not stated)
26.0,nt,CC(C)N(C(=O)Cn1c(=N)sc2ccccc21)c1ccccc1
-8.0,-0.1,O=P(Cc1ccccc1)(c1ccccc1)N(Cc1cccs1)CC1CCCO1 (configuration not stated)
nt,-3.1,O=c1[nH]cc(N=Cc2ccc3c(c2)OCO3)c(=O)[nH]1
0.0,-1.7,O=C(C1CCCCC1)n1cnc2ccccc21
2.0,-0.9,COc1nc(-c2ccccc2)ccc1-c1noc(C(C)C)n1
-3.0,17.5,C/C(=N/NC(N)=S)c1ccc(Br)s1
25.0,nt,CC(=O)Nc1ccc(NC(=O)C(C)OC(=O)C2CCN(C(=O)Nc3ccccc3)CC2)cc1 (configuration not stated)
nt,0.2,FC(F)(F)c1cnc(Oc2ccccc2)c(Cl)c1
8.0,-1.1,CCOC(=O)c1csc(N)n1
nt,-4.0&-1.8,CCN(CC)C(=O)N1CCN(C)CC1
7.0,-0.7,CCOc1ccc(CNc2ccc(NC(=O)c3ccco3)cc2)cc1OCC
-3.0,-0.3,Cc1oc2cc3c(C(=O)N4CCN(C)CC4)c(C)oc3cc2c1C(=O)N1CCN(C)CC1
-7.0,nt,CC(=O)Nc1ccc(NC(=O)C(C)Sc2n[nH]c(=O)n2Cc2ccccc2)cc1 (configuration not stated)
nt,1.0,CC1(C)O[C@H]2OC[C@@H]3OC(C)(C)O[C@@H]3[C@H]2O1
nt,1.3,Cc1ccc(-n2nnc(-c3ccc(Cl)c(Cl)c3)n2)cc1

A run of entries from the list above:
S aureus helic,MgrA DNA FP,structure
13.0,nt,c1ccc(COc2ccc(Oc3cnccn3)cc2)cc1
-19.0,-3.1,COC(=O)c1ccc(NN)cc1
-8.0,nt,COc1ccc(-n2c(C)cc(CNS(=O)(=O)c3ccccc3)c2C)cc1
nt,-1.9,Fc1cccc(-c2csc(-c3ccc(-c4csnn4)cc3)n2)c1
-13.0,nt,COc1ccc(NC(=O)CN(C)C(C)C(=O)Nc2ccc(NC(C)=O)cc2)cc1 (configuration not stated)
26.0,nt,CC(C)N(C(=O)Cn1c(=N)sc2ccccc21)c1ccccc1

High-throughput results from PubChem.

Only part of the results is shown, so the mix of outcomes need not match the whole.
